Assay outcomes from PubChem.
PABP polyA inh = PABP poly(A) RNA binding inhibitors, primary screen, biochemical, fluorescence polarization, uHTS | Polyadenylate-binding protein 1 (Homo sapiens), P11940 | inhibition, % at 35 µM | 290,000 tested, 1% active;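 active = 50% or more with normal probe brightness, or confirmed in later tests; about a fifth of its hits are not listed in these tables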;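 note: calls also rest on retests at 20 µM and on dose response follow-up; controls were probe without protein and protein plus probe with vehicle; some compounds called inactive have numbers as strong as hits; many hits fall short of the cut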
Target sequence (P11940 whole entry, looked up): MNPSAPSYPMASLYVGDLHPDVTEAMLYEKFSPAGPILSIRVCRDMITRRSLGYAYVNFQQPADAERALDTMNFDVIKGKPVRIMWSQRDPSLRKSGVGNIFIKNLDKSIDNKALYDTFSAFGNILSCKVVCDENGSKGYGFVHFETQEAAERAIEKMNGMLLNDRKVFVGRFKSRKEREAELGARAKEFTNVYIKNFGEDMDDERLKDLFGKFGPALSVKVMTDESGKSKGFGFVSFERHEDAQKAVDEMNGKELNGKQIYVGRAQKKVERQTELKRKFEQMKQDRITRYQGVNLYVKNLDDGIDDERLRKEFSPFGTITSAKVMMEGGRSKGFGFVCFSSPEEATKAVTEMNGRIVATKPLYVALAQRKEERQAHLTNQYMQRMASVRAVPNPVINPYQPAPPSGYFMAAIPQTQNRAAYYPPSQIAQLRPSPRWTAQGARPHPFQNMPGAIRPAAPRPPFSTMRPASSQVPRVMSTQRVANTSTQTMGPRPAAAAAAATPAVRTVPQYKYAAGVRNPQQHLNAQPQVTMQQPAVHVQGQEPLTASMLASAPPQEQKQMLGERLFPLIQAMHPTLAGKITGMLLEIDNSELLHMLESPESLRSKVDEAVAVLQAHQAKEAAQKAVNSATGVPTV
CSC inhib = cancer stem cell viability inhibitors, primary screen, luminescence | cancer stem cell-like cells viability | inhibition, % at 7.5 µM | 300,000 tested, 1.1% active | AID 2717, 2010;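 active = mean at 75% or more and at least half the replicates too; tested in HMLE shEcad cells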;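 note: 0% = median of negative and 100% = median of positive control wells; the first replicate is given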
Env fusion inh = inhibitors of HIV-1 Env-driven cell-cell fusion, primary screen, HeLa-JRFL effector, CEM21 target cells, luciferase | inhibition, % at 12.3 µM | 360,000 tested, 1.1% active | AID 651610, 2012;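 active = mean replicate inhibition score of at least 50 and every replicate individually at or above 50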;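 note: 0% = plate neutral controls and 100% = maraviroc near 300 nM; one replicate is shown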
eIF4H inh = human eIF4H binding inhibitors, primary screen, translation initiation inhibitor project, biochemical, uHTS, fluorescence polarization. 290,000 tested, 0.94% active. Eukaryotic translation initiation factor 4H (Homo sapiens), Q15056. eIF4H fluorescence polarization binding assay. inhibition, % at 35 µM. AID 2012, 2009;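 active = 50% or more with normal probe brightness, or confirmed in later tests; about a fifth of its hits are not listed in these tables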;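 note: calls also rest on retests at 20 µM and on dose response follow-up; 0% = protein and probe with vehicle and 100% = probe without protein; strong numbers were not always called active; many hits fall short of the cut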
UUG fidelity = modulators of yeast start codon fidelity, primary screen, whole organism, S. cerevisiae, single point, plate reader; S. cerevisiae UUG-firefly luciferase reporter, luminescence/redox ratio; activity score, % at 18.7 µM; 350,000 tested, 0.13% active; AID 602363, 2012;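 active = replicate mean at a twofold rise or more, about +100% in these data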;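 note: firefly luciferase made from a UUG start codon reports start codon fidelity; reporter light over untreated wells divided by growth signal over untreated wells; some hits fall short of that in this replicate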
Rce1 inhib = yeast Rce1p protease inhibitors, primary screen, biochemical, fluorescence, cell-free homogeneous. CAAX prenyl protease 2 (Saccharomyces cerevisiae (strain ATCC 204508 / S288c)), Q03530. yeast membranes, quenched prenylated peptide cleavage fluorescence. calls only. 290,000 tested, 0.27% active. AID 2563, 2010;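 active = fall in fluorescence gain of 50% or more versus controls, with final raw signal at or below 3038400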;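 note: plate controls were neutral control wells for no effect and wells lacking membranes for full effect; tested at 10 µM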
Target sequence (Q03530 whole entry, looked up): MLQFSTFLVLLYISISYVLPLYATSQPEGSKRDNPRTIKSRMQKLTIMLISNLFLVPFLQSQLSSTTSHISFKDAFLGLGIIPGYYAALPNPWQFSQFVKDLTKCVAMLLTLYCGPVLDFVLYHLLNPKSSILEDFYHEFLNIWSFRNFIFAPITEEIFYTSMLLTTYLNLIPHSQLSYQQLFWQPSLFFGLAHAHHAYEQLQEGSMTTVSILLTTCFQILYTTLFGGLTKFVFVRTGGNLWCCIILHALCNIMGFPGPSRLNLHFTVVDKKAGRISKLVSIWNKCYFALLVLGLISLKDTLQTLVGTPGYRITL
MT1-MMP act inh = blockers of MT1-MMP proenzyme processing, primary screen, HT1080 RFP-PRO-GFP cells, GFP/RFP fluorescence | AID 651647, 2012 | 360,000 tested, 0.061% active | GFP/RFP ratio fluorescence, overnight; percent of plate control window, DMSO zero | GFP/RFP ratio change, % at 20 µM | Matrix metalloproteinase-14 (Homo sapiens), P50281;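 active = GFP/RFP ratio change of at least 30% with cell ATP level not reduced by more than half and red fluorescence within 50% of control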; note: strong numbers were not always called active
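Assay system: HT1080 cells carrying an RFP-PRO-GFP reporter | Dosing: Single dose of 20 µM compound, 1% DMSO final | Incubation: Cells overnight before dosing, compound overnight, 37 °C, 5% CO2 | Evaluation: GFP/RFP fluorescence ratio | Control set: DMSO and RFP-L50D-GFP cell wells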
eIF4H inh retest = second read-out of eIF4H inh, no call of its own (marks repeat the call); inhibition, %; compound at 20 µM; confirmation average;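 mean of two retest wells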
PABP polyA inh retest = recorded beside PABP polyA inh, whose call it bears; inhibition, %; compound at 20 µM; confirmation repeats;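 mean of two retest wells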
MT1-MMP act inh RFP = second read-out of MT1-MMP act inh, no call of its own (marks repeat the call); RFP signal change, %; measured here: RFP expression control read;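 0 = vehicle wells; hits needed this value within 50% of zero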
Starred values were filed as active, the others as inactive; i = inactive; / = no result given; & = joins results of further samples; [ ] = another dose, or the depositor's remark.

SMILES	PABP polyA inh	CSC inhib	Env fusion inh	eIF4H inh	UUG fidelity	Rce1 inhib	MT1-MMP act inh	MT1-MMP act inh RFP	others
N#CC1=CN(Cc2ccccc2)C=C(/C=N/Nc2ccccc2)C1	0	-4	-19	33	/	/	-17	2
Cc1cccc(NC(=O)CN2CCc3cc4c(cc3C2C)OCCCO4)c1 (stereo not given)	-2	4	21	25	-7	i	4	-4
CCC(=O)Nc1ccc(S(=O)(=O)N2CCN(c3ccc(F)cc3)CC2)cc1	-6	3	-28	0	/	i	2	-6
CCOC(=O)N1C2=NC(C(=O)OC)=C(C(=O)OC)[C@@H]3Nc4ccccc4[C@]23C[C@H]1C(=O)OC	9	0	-68	-1	-11	i	-1	5
Cc1c(C2(c3c(C)n(C)n(-c4ccccc4)c3=O)C(=O)Nc3ccc(F)cc32)c(=O)n(-c2ccccc2)n1C	2	23	/	-7	7	i	4	1
CCCN(CC1CC1)C(=O)CCc1nnc(CCc2c[nH]c3ccccc23)o1	-2	9	10	-10	/	i	-4	-3
Oc1ccccc1N1CCN(Cc2ncc(-c3ccccc3)o2)CC1	3	-10	16	24	-12	i	2	4
Cc1cc(F)ccc1Oc1cc(NN2CCCCC2)c([N+](=O)[O-])cc1[N+](=O)[O-]	12	7	10	0	-7	i	10	2
CN(C)c1cccc(C(=O)N2CCC(n3nccc3NC(=O)C3CCOC3)CC2)c1 (stereo not given)	1	-7	14	-10	-5	i	3	4
Cc1cc(C)c(S(=O)(=O)N2CCCCC2)c(C)c1N(C)S(=O)(=O)c1ccc(Cl)cc1	-2	24	25	-5	/	i	-13	-23
Cc1ccc(NC(=O)Cn2nnc(C(=O)NCCc3ccccc3)c2N)c(C)c1	19	-1	/	29	-9	i	2	4
O=C(Nc1ccccc1C(=O)O)C1=NN=CC1	26	-13	8	-4	/	i	3	4

Reprinted from the part before: 3 compounds; new compounds follow.
SMILES	PABP polyA inh	CSC inhib	Env fusion inh	eIF4H inh	UUG fidelity	Rce1 inhib	MT1-MMP act inh	MT1-MMP act inh RFP	others
Cc1cc(C)c(S(=O)(=O)N2CCCCC2)c(C)c1N(C)S(=O)(=O)c1ccc(Cl)cc1	-2	24	25	-5	/	i	-13	-23
Cc1ccc(NC(=O)Cn2nnc(C(=O)NCCc3ccccc3)c2N)c(C)c1	19	-1	/	29	-9	i	2	4
O=C(Nc1ccccc1C(=O)O)C1=NN=CC1	26	-13	8	-4	/	i	3	4
COCCN(C(=O)CSc1nc2ccccc2c(=O)n1CC(C)C)c1c(N)n(Cc2ccccc2)c(=O)[nH]c1=O	16	-10	13	4	-8	i	-3	-1
C=CCn1c(CCC(O)CCCCC)n[nH]c1=S (stereo not given)	-7	21	5	4	-26	i	4	-1
CC(C)N(C(=O)Cn1cnc2c(cnn2-c2ccccc2Cl)c1=O)C(C)C	-3	5	/	-5	/	i	-1	-3
Cc1ccccc1NC(=O)Cn1c(C)nc2ccc(NC(=O)C3CC3)cc2c1=O	5	6	-24	-8	-16	i	5	6
O=[N+]([O-])c1ccc(N=Nc2c(Cl)cc(O)cc2Cl)cc1	4	110*	85*	-5	-24	i	2	-36
CCCCN(C(=O)C1CC(=O)N(Cc2ccc(C)cc2)C1)c1c(N)n(CC(C)C)c(=O)[nH]c1=O (stereo not given)	5	1	/	3	-5	i	-2	-1
COc1ccccc1Nc1ncnc2sccc12	13	-4	-21	-3	-26	i	3	3
COc1ccccc1NC1C=CS(=O)(=O)C1 (stereo not given)	3	-8	-103	-9	-21	i	1	6
COc1cc(/C=N/NC(=S)NC2CC3CC2C2C=CCC32)ccc1O (stereo not given)	0	44	-5	5	/	i	4	-22
Cc1cc(C)c(S(=O)(=O)Cc2ccccc2)c(=O)[nH]1	5	-8	-17	-7	/	i	1	-5
CCN(Cc1ccncc1)C(=O)c1cc(COc2ccc(F)cc2F)on1	0	/	-19	-6	-4	i	1	-8
COc1ccc(-n2cnnc2SCC(=O)NC2CCS(=O)(=O)C2)cc1 (stereo not given)	-3	-7	/	0	-22	i	0	5
CCCC1CC(C)(/C(C)=N\NC(N)=S)OC1=O (stereo not given)	-7	-17	-6	-4	-14	i	-3	1
Cc1ccc(S(=O)(=O)NCCCCCC(=O)Nc2ccccc2C)cc1	14	-14	7	4	-16	i	-3	0
Cc1cc(N)n2nc(C)c(-c3ccccc3)c2n1	5	5	-93	-1	-22	i	1	-1
CN(CC(=O)Nc1cccc(F)c1)C(=O)CCC1CCCCC1	/	-2	/	/	-14	i	4	-3
O=C(CCC(=O)N1CCc2ccccc2C1)N1CCN(S(=O)(=O)c2ccccc2)CC1	3	/	-72	-6	3	/	3	2
O=c1c2ccccc2n(CC(O)CN2CCOCC2)c2ccccc12 (stereo not given)	8	1	-8	-2	-12	i	-1	4
COc1cc(NC(=O)c2ccccc2)cc(OC)c1	-10	0	-80	-3	-12	i	1	-1
CCc1ccc(NC(=O)COC(=O)c2nc3nc(C)cc(C)n3n2)cc1	/	-22	/	/	-22	/	-1	4
CNC(=S)NNC(=O)c1c(C)nc2cc(C)ccn12	6	-11	20	3	-7	i	-1	6
O=C1OC(c2ccccc2)Cc2cc(C(=O)N3CCN(c4ccc(F)cc4)CC3)ccc21 (stereo not given)	/	/	5	/	-8	/	3	-1
COc1cccc2cc(C(=O)OCC(=O)N3CC(C)OC(C)C3)c(=O)oc12 (stereo not given)	/	1	-38	/	-26	/	4	-4
Cc1ccc(C(=O)C[n+]2ccc3ccccc3c2)cc1	-1	0	-1	-4	/	i	-3	2
OC(c1cccnc1)c1cccs1 (stereo not given)	-5	-6	/	-2	-1	/	8	2
CCOC(=O)/C(C#N)=C1/SC(CC)C(=O)N1c1ccc(C)cc1 (stereo not given)	-2	-10	/	6	-41	i	2	2
CCc1cc(=O)oc2cc(C)cc(OCC(=O)NC3CC3)c12	4	-7	-5	-20	2	i	1	1
COC(=O)c1[nH]c(C)c(/C(O)=C2\C(=O)C(=O)N(CCN(C)C)C2c2ccco2)c1C (stereo not given)	9	7	/	8	/	i	-3	-1
CCOc1ccc(NC(=O)NC2CCS(=O)(=O)C2)cc1 (stereo not given)	4	0	-18	5	-7	i	-2	2
C/C(=N\OCC(=O)N/N=C/c1ccc(C)cc1O)c1cccs1	11	7	-48	-7	-21	i	9	-1
Cc1ccc(N2CCN(C(=O)C3CCCN(c4ncnc5c4nc4n5CCCCC4)C3)CC2)c(C)c1 (stereo not given)	1	32	1	0	-15	i	4	-15
S=c1[nH]nc(Cn2nnc3ccccc32)n1-c1ccccc1	3	-2	3	-6	/	i	3	6
Cc1cc(C(=O)COC(=O)C2CC2)c(C)n1-c1ccc(F)cc1	54	-12	-12	4.9*	-77	i	1	0	eIF4H inh retest=52*;PABP polyA inh retest=1
Cc1noc(C)c1CSc1ncnc2sc3c(c12)CCC3	-2	/	/	-6	/	i	/	/
CCOC(=O)c1c(NC(=O)Cn2nc(C(=O)O)c3ccccc3c2=O)sc(C)c1C	12	1	4	-12	-10	i	1	0
Cc1ccccc1NC(=S)Nc1ccc2cn[nH]c2c1	1	-6	-7	8	/	i	-1	-4

3 entries drawn at random from the list so far:
SMILES	PABP polyA inh	CSC inhib	Env fusion inh	eIF4H inh	UUG fidelity	Rce1 inhib	MT1-MMP act inh	MT1-MMP act inh RFP	others
CN(CC(=O)Nc1cccc(F)c1)C(=O)CCC1CCCCC1	/	-2	/	/	-14	i	4	-3
Cc1ccc(S(=O)(=O)NCCCCCC(=O)Nc2ccccc2C)cc1	14	-14	7	4	-16	i	-3	0
COC(=O)c1[nH]c(C)c(/C(O)=C2\C(=O)C(=O)N(CCN(C)C)C2c2ccco2)c1C (stereo not given)	9	7	/	8	/	i	-3	-1

An excerpt of the results above:
SMILES	PABP polyA inh	CSC inhib	Env fusion inh	eIF4H inh	UUG fidelity	Rce1 inhib	MT1-MMP act inh	MT1-MMP act inh RFP	others
N#CC1=CN(Cc2ccccc2)C=C(/C=N/Nc2ccccc2)C1	0	-4	-19	33	/	/	-17	2
Cc1cccc(NC(=O)CN2CCc3cc4c(cc3C2C)OCCCO4)c1 (stereo not given)	-2	4	21	25	-7	i	4	-4

Additional entries
SMILES	PABP polyA inh	CSC inhib	Env fusion inh	eIF4H inh	UUG fidelity	Rce1 inhib	MT1-MMP act inh	MT1-MMP act inh RFP	others
Cc1ccc(C(=O)OCn2ncc(Cl)c(Cl)c2=O)cc1	-1	/	i	-5	-35	i	-5	-26
CC1CCCCC1NC(=O)/C(C#N)=C/c1ccccc1F (stereo not given)	-1	81*	20	4	222*	i	-15	-20
O=C(NCCc1c[nH]c2ccccc12)c1cc2sccc2n1Cc1ccccc1	3	48	-46	-5	-12	i	-6	-10
COc1ccc(-n2c(SCC(=O)N3CCCCC3)nc3ccccc3c2=O)cc1	-4	/	-6	-10	-9	i	0	-5
COC(=O)C(C)(C)ONC(=O)Nc1ccccc1[N+](=O)[O-]	4	-10	-7	-5	/	i	3	4
COc1ccc(C2CC(=O)C3=C(C2)Nc2ccccc2N(C(=O)CCC(=O)O)C3c2ccc(F)cc2)cc1 (stereo not given)	5	-3	-2	1	-4	i	0	0
O=C(CCl)NCc1cc(-c2ccc(Cl)cc2)no1	6	59	16	8	/	/	-15	-7
O=C(Nc1cccnc1Cl)c1cc2c(s1)-c1ccccc1OC2	-7	7	-24	2	-17	i	-3	-5
CC(C)C(NC(=O)c1ccc(C(C)(C)C)cc1)C(=O)N1CCCC1 (stereo not given)	-7	4	26	-16	10	/	0	0
COc1cccc(NS(=O)(=O)c2ccc(-c3coc(C)n3)cc2)c1	-8	-7	0	6	-26	i	2	-14
CC(C)c1ccc(CNn2cnnc2)cc1	1	-20	13	-6	-14	/	2	9
C[C@@H]1CN([C@H](C)CO)C(=O)CCCn2nncc2CO[C@H]1CN(C)Cc1ccc2c(c1)OCCO2	/	/	-4[16.7 µM]	/	-20&-4&2	/	2	2
CN1C(C(=O)Nc2ccccn2)=C(O)c2sc(Cl)cc2S1(=O)=O	-6	-9	30	-4	-12	i	0	0
Cc1nc2ccccc2c(=O)n1/N=C/c1ccco1	1	5	-1	6	-17	i	1	1
COc1ccc(OCC(=O)OCC(=O)NCc2ccc(F)cc2)cc1	1	1	-14	2	/	i	-1	-1

Not all compounds are listed; rates above refer to the full screens.
